# eIF4H inh: human eIF4H binding inhibitors, primary screen, translation initiation inhibitor project, biochemical, uHTS, fluorescence polarization. inhibition, % at 35 µM. eIF4H fluorescence polarization binding assay. hit rate 0.94% among 290,000;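 active = 50% or more with normal probe brightness, or confirmed in later tests; inconclusive = above 50% with abnormal brightness, or retests that disagree; inactive = below 50% or failed in later tests; about a fifth of its hits are not listed in these tables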;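 note: calls also rest on retests at 20 µM and on dose response follow-up; 0% = protein and probe with vehicle and 100% = probe without protein; strong numbers were not always called active; many hits fall short of the cut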
# PABP polyA inh: PABP poly(A) RNA binding inhibitors, primary screen, biochemical, fluorescence polarization, uHTS. Polyadenylate-binding protein 1 (Homo sapiens), P11940. inhibition, % at 35 µM. hit rate 1% among 290,000. AID 2014, 2009;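 active = 50% or more with normal probe brightness, or confirmed in later tests; inconclusive = above 50% with abnormal brightness, or retests that disagree; inactive = below 50% or failed in later tests; about a fifth of its hits are not listed in these tables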;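 note: calls also rest on retests at 20 µM and on dose response follow-up; controls were probe without protein and protein plus probe with vehicle; some compounds called inactive have numbers as strong as hits; many hits fall short of the cut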
# Yeast UUG start: modulators of yeast start codon fidelity, primary screen, whole organism, S. cerevisiae, single point, plate reader. S. cerevisiae UUG-firefly luciferase reporter, luminescence/redox ratio. activity score, % at 18.7 µM. hit rate 0.13% among 350,000;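 active = replicate mean at a twofold rise or more, about +100% in these data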;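 note: firefly luciferase made from a UUG start codon reports start codon fidelity; reporter light over untreated wells divided by growth signal over untreated wells; some hits fall short of that in this replicate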
# CSC inhib: cancer stem cell viability inhibitors, primary screen, luminescence | inhibition, % at 7.5 µM | cancer stem cell-like cells viability | AID 2717, 2010 | hit rate 1.1% among 300,000;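 active = mean at 75% or more and at least half the replicates too; inconclusive = mean and replicates disagree; tested in HMLE shEcad cells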;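 note: 0% = median of negative and 100% = median of positive control wells; the first replicate is given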
# HIV Env fusion: inhibitors of HIV-1 Env-driven cell-cell fusion, primary screen, HeLa-JRFL effector, CEM21 target cells, luciferase; inhibition, % at 12.3 µM; hit rate 1.1% among 360,000; AID 651610, 2012;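 active = mean replicate inhibition score of at least 50 and every replicate individually at or above 50; inconclusive = only one of the two criteria met; inactive = mean below 50 and not all replicates reaching 50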;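 note: 0% = plate neutral controls and 100% = maraviroc near 300 nM; one replicate is shown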
# MT1-MMP act inh: blockers of MT1-MMP proenzyme processing, primary screen, HT1080 RFP-PRO-GFP cells, GFP/RFP fluorescence; GFP/RFP ratio fluorescence, overnight; percent of plate control window, DMSO zero; GFP/RFP ratio change, % at 20 µM; hit rate 0.061% among 360,000; AID 651647, 2012;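 active = GFP/RFP ratio change of at least 30% with cell ATP level not reduced by more than half and red fluorescence within 50% of control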; note: strong numbers were not always called active
#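 Test system: HT1080 cells expressing an RFP-PRO-GFP fluorescent reporter construct / Compound dosing: single-point 20 µM compound, 1% DMSO / Schedule: cells overnight before dosing, compound overnight, 37 °C, 5% CO2 / Evaluation: GFP/RFP fluorescence ratio / Control set: DMSO and RFP-L50D-GFP cell wells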
# Rce1 inh: yeast Rce1p protease inhibitors, primary screen, biochemical, fluorescence, cell-free homogeneous. CAAX prenyl protease 2 (Saccharomyces cerevisiae (strain ATCC 204508 / S288c)), Q03530. yeast membranes, quenched prenylated peptide cleavage fluorescence. calls only. hit rate 0.27% among 290,000;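 active = fall in fluorescence gain of 50% or more versus controls, with final raw signal at or below 3038400; inconclusive = same 50% fall but final raw signal above 3038400; inactive = fall in fluorescence gain under 50%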;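 note: plate controls were neutral control wells for no effect and wells lacking membranes for full effect; tested at 10 µM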
# Target sequence (Q03530 whole entry, looked up): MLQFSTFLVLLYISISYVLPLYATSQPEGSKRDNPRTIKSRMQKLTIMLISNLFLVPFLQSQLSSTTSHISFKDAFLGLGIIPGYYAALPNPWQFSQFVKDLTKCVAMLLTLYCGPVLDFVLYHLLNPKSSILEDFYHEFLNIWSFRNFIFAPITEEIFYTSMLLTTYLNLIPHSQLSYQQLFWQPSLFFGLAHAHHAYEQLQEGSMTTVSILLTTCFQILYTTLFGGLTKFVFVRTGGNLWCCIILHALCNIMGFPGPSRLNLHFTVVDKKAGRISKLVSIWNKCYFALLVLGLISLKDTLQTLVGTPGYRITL
# eIF4H inh retest: also measured in eIF4H inh; calls as there; inhibition, %; compound at 20 µM; confirmation average;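 mean of two retest wells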
# PABP polyA inh retest: second read-out of PABP polyA inh, no call of its own (marks repeat the call); inhibition, %; compound at 20 µM; confirmation repeats;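 mean of two retest wells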
# MT1-MMP act inh RFP: second read-out of MT1-MMP act inh, no call of its own (marks repeat the call); RFP signal change, %; measured here: RFP expression control read;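 0 = vehicle wells; hits needed this value within 50% of zero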
# An asterisk follows results filed as active; i = inactive; ? = inconclusive; · = not tested or not shown. Only part of the results is shown (hit frequency here may not be typical).
SMILES,eIF4H inh,PABP polyA inh,Yeast UUG start,CSC inhib,HIV Env fusion,MT1-MMP act inh,MT1-MMP act inh RFP,Rce1 inh,others
O=C(CSc1nnc(CCc2nc3ccccc3[nH]2)n1-c1ccccc1)NCc1ccco1,-3.1,-2.5,12.7,-4.4,-70.5,-6.0,-0.5,i,
COc1cc(S(=O)(=O)NCc2ccc(F)cc2)ccc1-n1cnnn1,-7.0,-0.6,-13.2,-1.1,-56.2,-0.3,0.8,i,
COc1ccc(C(C)NC(=O)c2ccccc2)cc1 (stereo unspecified),-6.2,4.6,0.2,11.5,13.9,1.6,-4.7,i,
C=CCN1C(=O)C2C(C(=O)NC3CCCC3)C3C=CC2(O3)C1C(=O)NC1CCCC1 (stereo unspecified),1.6,-9.4,0.4,·,-6.0,-1.0,1.5,i,
COc1ccc(OC)c(NC(=O)COc2coc(CN3CCc4ccccc43)cc2=O)c1,·,·,-19.2,-1.5,?,-1.3,-14.3,i,
CC(=O)Nc1cccc(C(=O)NN2C(=O)NC3(CCC(C)CC3)C2=O)c1 (stereo unspecified),·,·,-5.6,·,?,0.7,3.4,·,
CC(O)(c1ccccc1)c1nc(-c2ccc3c(c2)OCO3)cs1 (stereo unspecified),·,·,-4.0,·,-3.2,0.5,-8.9,·,
Cc1ccc(NC(=O)CCSc2ccccc2)c(C)c1,-7.1,7.3,·,-15.1,·,0.0,-3.3,i,
Cc1ccc(S(=O)(=O)N(C)c2ccc(C(=O)Nc3cccc(C)n3)cc2)cc1,-6.1,2.5,-0.7,6.9,15.3,-4.2,-14.3,i,
CC1CCN(c2ccc3c(c2)S(=O)(=O)c2cccc(C(=O)NC4CC4)c2C3=O)CC1,·,·,-19.5,3.9,-16.2,-87.4,1.4,·,
CN1CCN(c2ccc(NC(=O)c3cc(S(N)(=O)=O)ccc3N3CCOCC3)cc2)CC1,·,·,-5.4,-0.6,·,-8.0,-0.5,·,
CCN(CC(=O)NC1CCS(=O)(=O)C1)Cc1nc2c(Br)cc(Br)cc2c(=O)[nH]1 (stereo unspecified),15.4,-6.0,·,-13.3,-10.5,-1.3,2.2,·,
Cc1cccc(NS(=O)(=O)c2cc3c(cc2C)n(C)c(=O)c(=O)n3C)c1,5.6,-8.1,4.3,·,5.4,-4.5,-4.3,i,
CCOC(=O)C1(CC2CCCCO2)CCN(Cc2nc(-c3cccs3)oc2C)CC1 (stereo unspecified),-6.1,-10.7,·,·,10.0,0.4,3.3,i,
COc1ccc2ccc(O)c(CN(C)CC(=O)Nc3ccccc3C(F)(F)F)c2c1,3.2,-4.8,-20.5,-25.6,-5.7,-4.0,0.8,i,
COc1ccc(CSc2nc3ccccc3c(=O)[nH]2)cc1F,-2.9,2.0,·,-7.1,0.4,1.0,1.8,i,
CCN(C(=O)CN1C(=O)/C(=C/c2ccc(F)cc2)SC1=S)C1CCS(=O)(=O)C1 (stereo unspecified),5.1,6.2,-13.7,3.1,-11.4,2.3,1.4,i,
CC(C)C[C@H](NC(=O)C1CCC(CNC(=O)[C@@H]2CCCN2C(=O)OC(C)(C)C)CC1)C(=O)O (stereo partly specified),-1.7,-10.0,-8.5,4.1,-17.2,4.8,7.5,i,
O=C(O)C1CC=CCC1C(=O)c1ccccc1 (stereo unspecified),-3.6,4.9,-13.1,-5.7,-20.7,-5.7,-7.5,i,
CC(C)(C)c1cc(CP(=O)(c2ccccc2)c2ccccc2)cc(C(C)(C)C)c1O,0.6,3.0,-1.5,20.6,25.0,-15.2,-15.2,i,
FC(F)Oc1cccc2cccnc12,-2.3,-2.8,-14.5,15.1,-100.4,-2.3,0.2,i,
CCOC(=O)Cc1cnc(NC(=O)CSc2nc(N)cc(=O)[nH]2)s1,0.2,-6.7,·,-4.4,-32.1,-3.7,0.0,·,
Cc1cc(C)n2c(SCC(=O)N(CC(C)C)c3c(N)n(CC(C)C)c(=O)[nH]c3=O)nnc2n1,-1.2,-2.5,·,3.6,8.0,-2.7,-4.6,i,
CC(C)CCNC(=O)NC(=O)CSc1nnc(-c2ccccc2F)n1N,-7.6,3.4,·,-6.7,12.3,1.3,1.4,i,
CCOC(=O)Cc1csc(NC(=O)CSc2nnc(-c3ccc(F)cc3)o2)n1,0.8,-2.6,-27.1,·,·,-0.4,2.3,i,
NC(=O)CC12CC3CC(C1)CC(CC(N)=O)(C3)C2,-3.7,-6.2,-19.8,-4.4,-7.6,9.3,4.4,i,
COc1ccc(-n2nc(C(=O)O)nc2-c2ccccc2)cc1,0.2,7.0,-27.4,-14.9,·,1.2,3.2,i,
CCc1cc(=O)oc2cc(C)cc(OCC(=O)NCc3cccnc3)c12,79.1*,7.2,-13.2,3.5,-4.0,-1.7,1.6,i,eIF4H inh retest=88.1*;PABP polyA inh retest=12.1
CCOC(=O)C1=C(O)/C(=C\c2cccc(OC)c2)N=C1C,8.4,12.1,-12.0,-7.2,·,-9.9,1.4,i,
CCn1c(SCC(=O)NC2CCCCC2)nnc1-c1ccccc1F,-7.5,-5.2,-22.3,-7.9,-3.3,-0.6,-2.0,i,
COc1cc(OC)cc(-c2c(-c3cccs3)c3cc(-c4ccc(OCc5ccccc5)cc4)ccc3n2C)c1,·,·,-30.3,8.2,23.2,-6.1,-0.7,·,
O=C(CN1C(=O)CSc2ccccc21)N1CCc2ccccc21,-13.7,1.9,-6.7,-15.3,·,-1.0,-1.8,i,
COc1ccc(NC(=O)c2cc(=O)[nH]c(=O)[nH]2)cc1S(=O)(=O)Nc1ccccc1Cl,-6.2,-2.5,-17.2,6.2,3.3,-0.2,1.2,i,
O=C(N/N=C/c1ccccc1[N+](=O)[O-])c1ccc2nc[nH]c2c1,-13.3,-3.4,-20.7,-16.1,-12.0,0.8,-0.2,i,
CCOc1ccc(OCCC(=O)OCC(=O)NC(C)c2ccccc2)cc1 (stereo unspecified),·,·,·,·,-2.0,1.0,-2.3,i,
CN(CC(=O)NNC(=O)CNC(=O)c1ccccc1F)S(=O)(=O)c1ccc(Cl)cc1,·,·,-6.2,-19.5,-3.5,1.2,4.4,·,
CC1CCN(C(=O)CC#N)CC1,-10.2,-5.0,·,2.6,-8.0,1.1,0.5,i,
COc1ccc(C(O)(CCN2CCOCC2)c2ccccc2)cc1 (stereo unspecified),-2.4,-10.3,-16.4,-1.9,-7.1,-1.3,0.5,i,
Cc1cc(NC(=O)CCCSc2nc(-c3ccco3)cc(C(F)(F)F)n2)no1,4.3,-2.7,-0.2,-11.2,·,-5.0,-1.7,i,
Cn1cccc1Cc1nnc(SCC(=O)Nc2ccc3c(c2)OCCO3)n1-c1ccc(F)cc1,2.5,-15.3,8.4,-8.7,-35.8,5.0,2.4,i,

# 3 entries already listed, arranged by formula weight, high to low:
SMILES,eIF4H inh,PABP polyA inh,Yeast UUG start,CSC inhib,HIV Env fusion,MT1-MMP act inh,MT1-MMP act inh RFP,Rce1 inh,others
Cn1cccc1Cc1nnc(SCC(=O)Nc2ccc3c(c2)OCCO3)n1-c1ccc(F)cc1,2.5,-15.3,8.4,-8.7,-35.8,5.0,2.4,i,
CCOC(=O)Cc1cnc(NC(=O)CSc2nc(N)cc(=O)[nH]2)s1,0.2,-6.7,·,-4.4,-32.1,-3.7,0.0,·,
COc1ccc(-n2nc(C(=O)O)nc2-c2ccccc2)cc1,0.2,7.0,-27.4,-14.9,·,1.2,3.2,i,

# Next compounds follow.
SMILES,eIF4H inh,PABP polyA inh,Yeast UUG start,CSC inhib,HIV Env fusion,MT1-MMP act inh,MT1-MMP act inh RFP,Rce1 inh,others
CC1(C)Cc2ccccc2-c2nnc(-c3ccco3)n21,-1.6,-9.6,·,-0.2,-30.1,-1.7,-2.8,i,
CC(=O)N(OCc1ccc(OC(C)C)c(Cl)c1)C(C)=O,3.0,0.5,-7.7,3.7,-16.0,1.9,1.2,i,
CC1CCN(C(=O)CCCl)c2ccccc21 (stereo unspecified),·,·,-10.9,·,-5.3,0.0,1.9,·,
CC1(CCC(=O)N2CCCC(N3CCN(c4cccc(C(F)(F)F)c4)CC3)C2)CC1 (stereo unspecified),-7.2,3.6,-1.2,45.5,2.2,-0.8,-4.9,i,
CCOC(=O)C(CC)Sc1nnc2c3cc(C)ccc3n(C)c2n1 (stereo unspecified),-13.6,1.2,-4.0,3.9,-343.5,1.1,-2.7,i,
COc1ccc(N2CN=C3SCC(=O)N3C2)cc1,-4.5,-0.2,-15.1,-8.8,-24.4,8.2,5.6,i,
CCO[C@@H]1OC(C(=O)NC2CC2)=C[C@H](c2csc3ccccc23)[C@H]1CCCO,-0.5,-12.6,2.7,-4.2,6.5,-0.4,0.0,i,
CCCCc1nnc(NC(=O)CN2C(=O)NC3(CCCCC3)C2=O)s1,-1.9,-0.3,-12.6,-10.1,1.3,0.6,3.0,i,
O=C(CN1C(=O)c2ccc(Br)cc2C1=O)NCC1CCCO1 (stereo unspecified),0.0,-6.0,-13.7,-6.6,-2.1,0.3,-0.8,i,
O=c1c2c3c(sc2nc2n1CCCCC2)CCCCC3,-7.7,-0.4,-0.1,46.4,·,3.5,-4.3,i,
O=C(NCCS(=O)(=O)N1CCN(c2ccccc2F)CC1)c1ccc(Cl)cc1,·,·,-17.2,-9.6,1.3,3.8,0.0,i,
CC(=O)Nc1cc(-c2cccc(C(=O)NCCN(C)C)c2)cn2c(-c3ccc(S(C)(=O)=O)cc3)cnc12,·,·,-0.9,·,15.5,3.2,7.9,·,
COc1ccccc1C(=O)NNC(=O)c1cc2ccccc2cc1O,·,·,-18.5,·,14.2,2.9,8.0,·,
CC(Oc1ccccc1)C(=O)N1CCN=C1SCc1cccc(F)c1 (stereo unspecified),7.9,0.7,-6.3,2.6,14.3,4.0,0.5,i,
COc1ccc(CCN2CC(C(=O)N(C)Cc3ccccn3)CCC2=O)cc1 (stereo unspecified),·,·,-11.1,·,i,0.3,4.8,·,
O=C(CCCOc1ccccc1)NCCc1nc2ccccc2[nH]1,-6.9,-2.9,-18.4,-12.3,-6.1,-1.2,5.5,i,
O=C(NC1CCCC1)c1cccc2c1C(=O)c1ccc(/C=C/c3ccccc3)cc1S2(=O)=O,·,·,-7.6,18.1,4.6,-0.5,-6.2,·,
O=c1ccc2cc(S(=O)(=O)N3CCN(c4ccccc4F)CC3)ccc2o1,5.9,6.4,-13.2,-3.7,8.0,3.5,-8.3,i,
COc1ccc(/C=N\NS(=O)(=O)c2ccc(Br)cc2)cc1COc1ccccc1[N+](=O)[O-],-3.5,1.5,6.7,34.6,·,3.6,-2.2,i,
COc1ccc(CN2CCC(C)CC2)cc1OCc1ccccc1,17.5,8.4,-4.3,-7.8,0.0,0.1,0.4,i,
COc1ccc(C)cc1NC(=O)c1sc2nc(C)nc(N3CCOCC3)c2c1C,5.3,-6.6,-18.1,·,5.4,1.4,-0.8,i,
C[C@@H](NS(=O)(=O)c1cc(Cl)ccc1F)[C@H](O)c1ccccc1,·,·,-19.6,·,8.6,-0.3,-1.2,·,

# Screens: PubChem BioAssay, several laboratories
